Rce1 inh: blocks yeast Ras-converting enzyme; Q03530; yeast membranes, quenched prenylated peptide cleavage fluorescence; calls only; 290,000 compounds, 0.27% hits;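 active = fall in fluorescence gain of 50% or more versus controls, with final raw signal at or below 3038400; inconclusive = same 50% fall but final raw signal above 3038400; inactive = fall in fluorescence gain under 50%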;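 also: plate controls were neutral control wells for no effect and wells lacking membranes for full effect; tested at 10 µM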
Target sequence (Q03530 whole entry, looked up): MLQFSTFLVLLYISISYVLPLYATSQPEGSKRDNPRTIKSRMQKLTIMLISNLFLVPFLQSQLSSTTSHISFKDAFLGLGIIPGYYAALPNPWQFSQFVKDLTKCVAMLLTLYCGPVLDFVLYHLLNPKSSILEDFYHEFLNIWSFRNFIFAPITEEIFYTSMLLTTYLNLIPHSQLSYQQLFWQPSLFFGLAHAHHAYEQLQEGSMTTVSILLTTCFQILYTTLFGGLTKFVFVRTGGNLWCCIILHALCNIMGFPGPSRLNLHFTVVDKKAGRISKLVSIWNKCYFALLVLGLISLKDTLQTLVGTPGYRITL
UUG fidelity: modulators of start codon recognition fidelity in yeast; AID 602363; S. cerevisiae UUG-firefly luciferase reporter, luminescence/redox ratio; 350,000 compounds, 0.13% hits; activity score, % at 18.7 µM;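 active = replicate mean at a twofold rise or more, about +100% in these data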;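 also: firefly luciferase made from a UUG start codon reports start codon fidelity; reporter light over untreated wells divided by growth signal over untreated wells; some hits fall short of that in this replicate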
CSC inhib: cancer stem cell inhibition. cancer stem cell-like cells viability, luminescence. inhibition, % at 7.5 µM. 300,000 compounds, 1.1% hits. AID 2717;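 active = mean at 75% or more and at least half the replicates too; inconclusive = mean and replicates disagree; tested in HMLE shEcad cells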;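 also: 0% = median of negative and 100% = median of positive control wells; the first replicate is given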
PABP polyA inh: blocks human PABP binding to poly(A) RNA; P11940; fluorescence polarization; inhibition, % at 35 µM; 290,000 compounds, 1% hits;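 active = 50% or more with normal probe brightness, or confirmed in later tests; inconclusive = above 50% with abnormal brightness, or retests that disagree; inactive = below 50% or failed in later tests; about a fifth of its hits are not listed in these tables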;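 also: calls also rest on retests at 20 µM and on dose response follow-up; controls were probe without protein and protein plus probe with vehicle; some compounds called inactive have numbers as strong as hits; many hits fall short of the cut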
Env fusion inh: inhibitors of HIV Env-mediated cell fusion; HeLa-JRFL Env/CEM21 cell fusion, luciferase; 360,000 compounds, 1.1% hits; AID 651610; inhibition, % at 12.3 µM;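 active = mean replicate inhibition score of at least 50 and every replicate individually at or above 50; inconclusive = only one of the two criteria met; inactive = mean below 50 and not all replicates reaching 50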;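 also: 0% = plate neutral controls and 100% = maraviroc near 300 nM; one replicate is shown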
MT1-MMP act inh: blocks activation of human MT1-MMP; P50281; HT1080 RFP-PRO-GFP cells, GFP/RFP ratio fluorescence, overnight; percent of plate control window, DMSO zero; GFP/RFP ratio change, % at 20 µM; 360,000 compounds, 0.061% hits;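 active = GFP/RFP ratio change of at least 30% with cell ATP level not reduced by more than half and red fluorescence within 50% of control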; also: strong numbers were not always called active
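Compound: 20 µM single dose, 1% DMSO / System: HT1080 RFP-PRO-GFP cells / Controls: DMSO and RFP-L50D-GFP cell wells / Read-out basis: GFP/RFP fluorescence ratio / Schedule: overnight compound exposure at 37 °C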
eIF4H FP inh: inhibitors of RNA binding by human eIF4H | 290,000 compounds, 0.94% hits | inhibition, % at 35 µM | eIF4H fluorescence polarization binding assay | Q15056 | AID 2012;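 active = 50% or more with normal probe brightness, or confirmed in later tests; inconclusive = above 50% with abnormal brightness, or retests that disagree; inactive = below 50% or failed in later tests; about a fifth of its hits are not listed in these tables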;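 also: calls also rest on retests at 20 µM and on dose response follow-up; 0% = protein and probe with vehicle and 100% = probe without protein; strong numbers were not always called active; many hits fall short of the cut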
eIF4H FP inh retest: further read-out of eIF4H FP inh, marked with its call; inhibition, %; compound at 20 µM; confirmation average;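 mean of two retest wells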
PABP polyA inh retest: recorded beside PABP polyA inh, whose call it bears; inhibition, %; compound at 20 µM; confirmation repeats;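 mean of two retest wells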
MT1-MMP act inh RFP: further read-out of MT1-MMP act inh, marked with its call; RFP signal change, %; measured here: RFP expression control read;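 0 = vehicle wells; hits needed this value within 50% of zero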
* = called active by the depositor; i = inactive; ? = inconclusive; / = not tested or not shown; + = active, no number.

SMILES	Rce1 inh	UUG fidelity	CSC inhib	PABP polyA inh	Env fusion inh	MT1-MMP act inh	MT1-MMP act inh RFP	eIF4H FP inh	others
COc1cccc(N2CC(C(=O)Nc3nnc(SCc4cccnc4)s3)CC2=O)c1 (stereo not drawn)	i	/	-11	-3	/	-2	0	-2
O=C(c1ccco1)N1CCN(/C(=N/S(=O)(=O)c2cccs2)c2ccccc2Cl)CC1	i	5	-3	-6	/	4	3	40
O=C(Nc1ccc2nc(SCc3ccc(Cl)cc3)sc2c1)c1ccccc1C(=O)N1CCOCC1	i	-14	14	-12	/	2	-3	-6
O=C(COc1ccc2ccc(=O)oc2c1)Nc1ccc(CN2CCOCC2)cc1	i	-14	-16	6	8	1	1	3
O=c1[nH]c2ccc(S(=O)(=O)NCc3ccccc3)cc2[nH]1	i	/	-20	-3	4	1	2	-2
O=C(Nc1ccc(F)cc1F)N1CCCN(CCOc2ccccc2)CC1	i	-14	-3	5	-9	3	2	5
Cc1ccc(S(=O)(=O)CC(=O)N2CCN(c3ccccc3F)CC2)cc1	+	-7	11	9	/	-3	1	4
Cc1nc(SCC(=O)N2CCN(c3ccccc3)CC2)c2oc3ccccc3c2n1	i	-17	-3	4	/	-2	-8	-4
C=CCc1cc(C)ccc1OCCCn1ccnc1	i	-16	-8	5	2	6	2	3
COc1ccc2c(-c3cnc(N4CCOCC4)nc3)c(-c3ccc(S(C)(=O)=O)cc3)sc2c1	/	-11	39	/	36	-4	-2	/
Cc1oc(-c2cccc(Cl)c2)nc1CSc1nc2c(c(=O)[nH]1)CCC2	i	-16	-7	3	/	-1	-3	1
COc1nnc(-c2ccc(N3CCOCC3)c(NC(=O)c3ccccc3)c2)c2ccccc12	i	8	-7	1	13	-4	-11	-14
CC(=O)c1cccc(Nc2nc3ccccc3n3cnnc23)c1	i	-5	6	-2	-1	0	2	-12
CN(C(=O)COC(=O)CSc1ccc(C(N)=O)cc1[N+](=O)[O-])C1CCS(=O)(=O)C1 (stereo not drawn)	i	-15	-19	/	-22	-5	1	/
NC(=O)C1CCN(c2ccc(C(F)(F)F)cn2)CC1	i	/	-9	-4	6	-3	-3	-7
COc1ccc(N(C)C(=O)c2cc3c(s2)-c2ccccc2S(=O)(=O)C3)cc1	i	-2	12	0	12	-2	-2	-5
COCCn1c(N)c(N(Cc2ccccc2)C(=O)C2CCCCC2)c(=O)[nH]c1=O	i	/	-6	5	3	1	0	6
O=C1CCC(=O)N1CCCCCc1nc(-c2ccccc2)no1	i	-35	-8	-1	/	3	-4	-3
O=C(CCC1CCCC1)N1CCN(C(=O)c2cccnc2)CC1	i	-19	-15	12	-140	3	-1	12
Nc1cc(N)nc(SCCc2ccccc2)n1	i	-13	-1	-4	-18	-2	-3	-11
O=C(CNC(=O)Cc1cccc2ccccc12)NCc1ccc(F)cc1	/	-20	11	-10	6	0	1	6
CNC(=O)c1[nH]cnc1C(=O)Nc1ccccc1	/	-16	-13	/	?	4	2	/
O=C(/C=C/c1c(F)cccc1Cl)NCCCN1CCOCC1	i	-14	-13	-1	-15	4	6	10
CCCCN(C(=O)c1ccc(C)cc1)c1c(N)n(CCC)c(=O)[nH]c1=O	/	-5	-15	14	2	2	2	4

The closing 2 compounds of the part before come first, to join the parts.
SMILES	Rce1 inh	UUG fidelity	CSC inhib	PABP polyA inh	Env fusion inh	MT1-MMP act inh	MT1-MMP act inh RFP	eIF4H FP inh	others
O=C(/C=C/c1c(F)cccc1Cl)NCCCN1CCOCC1	i	-14	-13	-1	-15	4	6	10
CCCCN(C(=O)c1ccc(C)cc1)c1c(N)n(CCC)c(=O)[nH]c1=O	/	-5	-15	14	2	2	2	4
COc1ccc(CCNC(=O)C2CCC(C(C)(C)C)CC2)cc1OC (stereo not drawn)	i	0	8	-6	7	2	-2	0
O=C(O)/C=C/C(=O)Nc1ccc(OC(F)(F)F)cc1Br	i	-18	-8	11	6	3	0	-4
O=C(NNc1c(F)c(F)cc(F)c1F)C1CCN(S(=O)(=O)c2ccccc2F)CC1	/	-22	-4	/	8	-6	-2	/
C#CCOCCOCCOCCNc1nc(N2CCN(C(=O)[C@H](C)n3cc(CCC(=O)O)nn3)CC2)nc(N2CCN(C(=O)[C@H](C)n3cc(CCC(=O)O)nn3)CC2)n1	/	17	/	/	-17	0	4	/
COc1cccc(C(=O)c2c[nH]c(C(=O)NCc3cccnc3)c2)c1	i	/	-2	-11	27	4	-3	0
CCN(CC1COc2ccccc2O1)C(=S)NCCCN(C)C (stereo not drawn)	i	/	0	-5	13	-3	-2	2
COC(=O)CN(c1ccccc1F)S(=O)(=O)c1ccccc1	i	-11	-2	5	-28	3	4	-3
CCSc1nnc(NC(=O)c2cc(C)nc3ccccc23)s1	i	-11	-12	11	/	-2	4	1
OC1(c2ccccc2)CC(c2ccccc2)c2ccccc2O1 (stereo not drawn)	/	-6	/	/	-19	-1	-7	/
O=C(N=C1SC2CS(=O)(=O)CC2N1Cc1ccccc1)C1CC1 (stereo not drawn)	/	-8	/	/	7	-1	1	/
COc1cccc(OC)c1OCCNC(C)(C)C	/	-13	-5	9	/	2	5	-2
COc1cc(C(C)=O)ccc1OCCN1CCC(Cc2ccccc2)CC1	i	-12	51	-2	5	8	8	5
COc1ccc(NC(=O)CN(C)CC(=O)Nc2ccc(N3CCOCC3)cc2)c([N+](=O)[O-])c1	i	/	-17	-8	-3	7	1	-3
CC(C)(C)OC(=O)N1CCC[C@H]1c1nnc(SC/C=C/c2ccccc2)o1	i	-10	-12	-2	/	-2	4	-4
O=C(CSc1nnc(SCc2ccccc2)s1)N/N=C/C=C/c1ccco1	i	/	4	6	-5	-5	9	94*	eIF4H FP inh retest=81*;PABP polyA inh retest=45
COc1ccc(C(=O)N2CCOC2CNC(=O)C(=O)NCCc2ccc(OC)c(OC)c2)cc1 (stereo not drawn)	i	-12	-11	-1	2	-1	1	-3
Cc1ccc(C(=O)C(C)OC(=O)Cc2c[nH]c3ccccc23)cc1 (stereo not drawn)	i	-10	-8	/	/	6	4	/
CC(OC(=O)CN1C(=O)NC2(CCCCC2C)C1=O)c1ccccc1 (stereo not drawn)	/	2	/	/	4	-1	0	/
COc1ccc(C2=NN(C(=O)CCC(=O)O)C(c3ccc([N+](=O)[O-])cc3)C2)cc1 (stereo not drawn)	i	2	-6	3	-29	-1	7	2
Cc1ccc2nc(-c3cccnc3)c(Nc3ccccc3C)n2c1	i	0	7	-2	-7	7	3	-14
CS(=O)(=O)c1ccc(NC(=O)CCN2C(=O)NC3(CCCC3)C2=O)cc1	/	-10	-4	/	/	0	4	/
CCn1c(SCC(=O)N2CCCc3ccccc32)nc2c1c(=O)n(C)c(=O)n2C	i	2	-9	1	-8	-2	4	-6
O=C(Cc1cccs1)NC1CCCC1	i	/	-7	0	-12	-2	3	0
N/C(=N\OC(=O)c1cccc([N+](=O)[O-])c1)c1ccccn1	i	/	1	6	-2	5	6	-7

Ordered by molecular weight (ascending): 15 of the compounds above
SMILES	Rce1 inh	UUG fidelity	CSC inhib	PABP polyA inh	Env fusion inh	MT1-MMP act inh	MT1-MMP act inh RFP	eIF4H FP inh	others
O=C(Cc1cccs1)NC1CCCC1	i	/	-7	0	-12	-2	3	0
CNC(=O)c1[nH]cnc1C(=O)Nc1ccccc1	/	-16	-13	/	?	4	2	/
COc1cccc(OC)c1OCCNC(C)(C)C	/	-13	-5	9	/	2	5	-2
NC(=O)C1CCN(c2ccc(C(F)(F)F)cn2)CC1	i	/	-9	-4	6	-3	-3	-7
O=c1[nH]c2ccc(S(=O)(=O)NCc3ccccc3)cc2[nH]1	i	/	-20	-3	4	1	2	-2
Cc1ccc2nc(-c3cccnc3)c(Nc3ccccc3C)n2c1	i	0	7	-2	-7	7	3	-14
COC(=O)CN(c1ccccc1F)S(=O)(=O)c1ccccc1	i	-11	-2	5	-28	3	4	-3
CCN(CC1COc2ccccc2O1)C(=S)NCCCN(C)C (stereo not drawn)	i	/	0	-5	13	-3	-2	2
O=C(O)/C=C/C(=O)Nc1ccc(OC(F)(F)F)cc1Br	i	-18	-8	11	6	3	0	-4
COc1cc(C(C)=O)ccc1OCCN1CCC(Cc2ccccc2)CC1	i	-12	51	-2	5	8	8	5
CS(=O)(=O)c1ccc(NC(=O)CCN2C(=O)NC3(CCCC3)C2=O)cc1	/	-10	-4	/	/	0	4	/
COCCn1c(N)c(N(Cc2ccccc2)C(=O)C2CCCCC2)c(=O)[nH]c1=O	i	/	-6	5	3	1	0	6
CCn1c(SCC(=O)N2CCCc3ccccc32)nc2c1c(=O)n(C)c(=O)n2C	i	2	-9	1	-8	-2	4	-6
COc1nnc(-c2ccc(N3CCOCC3)c(NC(=O)c3ccccc3)c2)c2ccccc12	i	8	-7	1	13	-4	-11	-14
O=C(NNc1c(F)c(F)cc(F)c1F)C1CCN(S(=O)(=O)c2ccccc2F)CC1	/	-22	-4	/	8	-6	-2	/

Remaining list, next part:
SMILES	Rce1 inh	UUG fidelity	CSC inhib	PABP polyA inh	Env fusion inh	MT1-MMP act inh	MT1-MMP act inh RFP	eIF4H FP inh	others
CN(C)C(=S)Nc1cccc(C(F)(F)F)c1	i	/	-7	3	-1	3	5	-7
Cc1nc2cc(Cl)ccc2n1CCO	i	-15	-5	7	/	4	6	-10
CN(C)C(CNC(=O)Nc1cccc(Cl)c1)c1cccnc1 (stereo not drawn)	i	-13	-12	-18	-101	2	5	-7
COc1ccc(-c2noc(C3CCCN(C(=O)c4cccc(C)c4)C3)n2)cc1 (stereo not drawn)	i	20	2	-7	40	3	-6	-2
Cc1cccc(CCNC(=O)C2CCC(=O)N(Cc3ccccc3F)C2)n1 (stereo not drawn)	i	-10	-4	-2	4	-1	1	-10
Fc1ccc2c(c1)C(c1cccnc1)=NNC(c1cccs1)=N2	i	/	10	-2	-7	3	4	-6
O=c1c2ccccc2ncn1-c1ccccc1C(F)(F)F	i	/	-10	-4	0	6	7	-3
COC(=O)c1ccc(C2c3c(n[nH]c3C)C(=O)N2c2ccc(C)cc2)cc1 (stereo not drawn)	i	7	-9	0	-14	-2	-3	-6
Cc1c(C(=O)O)sc2nc(C)n(C)c(=O)c12	i	-12	2	1	/	5	2	6
Cn1c(CNC(=O)CNC(=O)Cc2ccccc2)cc(=O)n(C)c1=O	i	-23	-25	5	-4	1	7	43
C=CCNC(=O)/C(=C/c1cccc([N+](=O)[O-])c1)NC(=O)c1ccccc1	i	/	8	19	14	-4	2	5

An excerpt. The share of hits here may be higher or lower than overall.
